Screens: PubChem, Broad Institute
ID4 binder – binders of human ID4 protein, primary screen, biochemical, small molecule microarray, single point; Flag-ID4 binding, fluorescence F/B; calls only; 1.2% of 31,000 active; AID 624137, 2012;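 active means spot signal over background at p below 0.07 in all four prints; compounds were printed on slides so no solution concentration is given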;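 further: a binder raises fluorescence above local background on the spot; about 2 pmol printed per array spot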
Target sequence (P47928 whole entry, looked up): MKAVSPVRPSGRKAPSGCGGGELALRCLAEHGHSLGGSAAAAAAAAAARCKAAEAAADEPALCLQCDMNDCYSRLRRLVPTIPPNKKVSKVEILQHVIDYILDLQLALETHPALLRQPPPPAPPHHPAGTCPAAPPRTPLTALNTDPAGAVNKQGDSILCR
STAT3 binder – STAT3 binders, primary screen, biochemical, small molecule microarray, single point, set 2; 0.2% of 17,000 active; AID 624138, 2012; calls only; His-STAT3 binding, anti-His fluorescence; Signal transducer and activator of transcription 3 (Homo sapiens), P40763;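 active means compounds whose four printed spots each show fluorescence over background unusually high for their array block, chance value under 7%; compounds were printed on slides so no solution concentration is given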;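 further: about 2 pmol printed per array spot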
mut p53 SMM – binders of human mutant p53, primary screen, biochemical, small molecule microarray, anti-GST fluorescence | mutant tumor protein p53 (GST-tagged), Homo sapiens | small molecule microarray binding | calls only | 0.4% of 17,000 active | AID 624136, 2012;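 active means compounds whose four printed spots each glow above background more than chance allows, each with a p-value under 7%; compounds were printed on slides so no solution concentration is given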;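 further: about 2 pmol printed per array spot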
c-Myc SMM – binders of human c-Myc, primary screen, biochemical, small molecule microarray, anti-His fluorescence. His-c-Myc binding. AID 624141, 2012. 1.5% of 17,000 active. Myc proto-oncogene protein (Homo sapiens), P01106. calls only;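 active means spot fluorescence over background with P-value below 7% in all four replicate spots, showing protein binding; compounds were printed on slides so no solution concentration is given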;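 further: score is binary with 100 for all four spots passing and 0 otherwise; about 2 pmol printed per array spot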
Target sequence (P01106 whole entry, looked up): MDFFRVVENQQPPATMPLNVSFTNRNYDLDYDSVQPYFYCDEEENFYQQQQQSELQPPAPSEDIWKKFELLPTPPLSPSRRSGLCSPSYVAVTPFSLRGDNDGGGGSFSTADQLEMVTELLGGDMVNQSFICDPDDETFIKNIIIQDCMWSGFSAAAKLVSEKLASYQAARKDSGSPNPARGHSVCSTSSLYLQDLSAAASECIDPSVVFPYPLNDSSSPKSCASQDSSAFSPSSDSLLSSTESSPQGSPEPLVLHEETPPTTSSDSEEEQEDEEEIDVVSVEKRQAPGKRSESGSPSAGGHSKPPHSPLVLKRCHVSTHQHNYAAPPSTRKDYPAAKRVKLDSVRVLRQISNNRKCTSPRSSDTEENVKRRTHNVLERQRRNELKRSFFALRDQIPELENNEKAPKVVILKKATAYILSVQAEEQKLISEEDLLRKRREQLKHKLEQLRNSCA
Calls only; i = inactive; . = not tested or not shown; + = active, no number.

SMILES | ID4 binder | STAT3 binder | mut p53 SMM | c-Myc SMM
C[C@@H]1CCCCO[C@@H](CN(C)C(=O)c2ccccc2)[C@@H](C)CN([C@@H](C)CO)C(=O)c2cc(NS(=O)(=O)c3cn(C)cn3)ccc2O1 | i | i | i | i
C[C@@H]1CN([C@@H](C)CO)C(=O)c2cc(N(C)C)ccc2O[C@H]1CN(C)C(=O)Nc1ccc(F)cc1 | i | i | i | i
CCCn1c(=O)[nH]c2nc(-c3ccc(S(=O)(=O)O)cc3)[nH]c2c1=O | i | i | i | i
Cc1ccc(C(=O)NCCNS(=O)(=O)c2ccccc2)cc1 | i | i | i | i
C[C@@H]1CN([C@@H](C)CO)C(=O)Cc2cc(NC(=O)Cn3cnnn3)ccc2O[C@H]1CN(C)Cc1ccccc1 | . | i | i | i
CNC[C@H]1OCCCC[C@@H](C)Oc2ccc(NC(=O)Nc3ccccc3)cc2C(=O)N([C@H](C)CO)C[C@H]1C | i | i | i | i
CNC[C@H]1Oc2ccc(NC(=O)CCC(F)(F)F)cc2C(=O)N([C@H](C)CO)C[C@H]1C | i | i | i | i
C[C@@H]1CN([C@@H](C)CO)C(=O)Cc2cc(NC(=O)Nc3ccccc3)ccc2O[C@H]1CN(C)Cc1ccc(C(=O)Nc2ccccc2N)cc1 | . | i | i | i
C[C@@H]1CN([C@@H](C)CO)C(=O)c2cc(NC(=O)Nc3ccccc3)ccc2O[C@@H](C)CCCCO[C@H]1CN(C)S(=O)(=O)c1ccccc1 | i | i | i | i
O=C1O[C@H](c2ccccc2)[C@H](c2ccccc2)N2[C@H]1[C@@H](C(=O)Nc1nc3ccccc3s1)[C@]1(C(=O)Nc3ccc(C#CC4(O)CCCCCC4)cc31)[C@H]2c1ccc(OCCO)cc1 | i | i | i | i
O=C(NCc1ccccc1)C1=C[C@H](c2csc3ccccc23)C[C@H](OCc2ccc(CO)cc2)O1 | i | i | i | i
C[C@@H]1CN([C@H](C)CO)C(=O)c2cccc(NC(=O)Nc3cccc4ccccc34)c2O[C@H]1CN(C)C(=O)Nc1ccc(C(F)(F)F)cc1 | i | i | i | i
C[C@@H]1CN([C@@H](C)CO)C(=O)CCCn2nncc2CO[C@H]1CN(C)C(=O)Nc1ccc2c(c1)OCCO2 | i | i | i | i
C[C@H](CO)N1C[C@H](C)[C@@H](CN(C)C)Oc2c(NC(=O)C3CCOCC3)cccc2C1=O | i | i | i | i
Cc1noc(C)c1NC(=O)Nc1cccc2c1O[C@@H](CN(C)C(=O)Nc1c(C)noc1C)[C@H](C)CN([C@H](C)CO)C2=O | i | i | i | i
C[C@@H]1CN([C@H](C)CO)C(=O)c2cccc(NS(=O)(=O)c3ccc(Cl)cc3)c2O[C@@H]1CN(C)CC1CC1 | i | i | i | i
Cc1cccc(C)c1OCC(=O)Nc1cccc(C(=O)O)c1 | i | i | i | i
COC(=O)C1=C2CC[C@H](CO)NC(=O)N[C@H](Cc3ccccc3)C(=O)NCc3cn(nn3)C[C@H](Cc3ccccc3)NC(=O)c3oc(c(C(=O)OC)c3C(=O)OC)CC[C@H](CO)NC(=O)N[C@H](Cc3ccccc3)C(=O)NCc3cn(nn3)C[C@H](Cc3ccccc3)NC(=O)C(=C1C(=O)OC)O2 | i | i | i | i
Cc1ccc(S(=O)(=O)c2ccc(Cl)cc2)cc1S(=O)(=O)Nc1ccc(C(=O)O)cc1 | i | i | i | i
C[C@H](CO)N1C[C@H](C)[C@H](CN(C)Cc2ccncc2)OCCCC[C@H](C)Oc2ccc(N(C)C)cc2C1=O | i | i | i | i
C[C@@H]1CCCCO[C@H](CN(C)C(=O)C2CCCCC2)[C@@H](C)CN([C@@H](C)CO)C(=O)c2cc(NS(=O)(=O)c3cccs3)ccc2O1 | i | i | i | i
COc1ccc(CN(C)C[C@@H]2Oc3c(NC(=O)c4cc(C)nn4C)cccc3C(=O)N([C@H](C)CO)C[C@H]2C)cc1 | i | i | i | i
CCCCC[C@H](O)C/C=C1/C(=O)C=C[C@@H]1C/C=C\CCCC(=O)O | . | i | i | i
COc1cc([C@H]2Oc3c(OC)cc(/C=C/CO)cc3[C@H]2CO)ccc1OC1OC(CO)C(O)C(O)C1O (stereo partly specified) | . | i | i | i
C[C@H]1CN([C@@H](C)CO)C(=O)c2cccc(NS(=O)(=O)c3cn(C)cn3)c2O[C@@H]1CN(C)C | i | i | i | i
CC(C(=O)Nc1cc(Cl)ccc1O)N1C(=O)c2ccccc2C1=O (stereo unspecified) | i | i | i | i
COc1ccc(CN(C)C[C@H]2Oc3ccc(NC(=O)Nc4c(C)noc4C)cc3CC(=O)N([C@H](C)CO)C[C@@H]2C)cc1 | i | i | i | i
COC(=O)C1=C[C@@H](O)[C@@H](O)[C@H](O[C@@H]2O[C@H](CO)[C@@H](O)[C@H](O)[C@H]2OC(=O)/C=C/c2ccccc2)C1 | i | i | i | i
CC(=O)c1c(C)oc(NC(=O)Cn2cnc3ccccc3c2=O)c1C#N | i | i | i | i
CNC[C@H]1OCCCC[C@@H](C)Oc2ccc(NC(=O)c3ccncc3)cc2C(=O)N([C@@H](C)CO)C[C@H]1C | i | i | i | i
CCCCCC(O)CC(O)CCc1ccc(O)c(OC)c1 (stereo unspecified) | . | i | i | i
Cc1noc(C)c1NC(=O)Nc1ccc2c(c1)CC(=O)N([C@H](C)CO)C[C@H](C)[C@@H](CN(C)S(=O)(=O)c1cn(C)cn1)O2 | i | i | i | i
C[C@H](CO)N1C[C@H](C)[C@H](CN(C)C(=O)c2ccccc2)OCc2cnnn2CCCC1=O | i | i | i | i
C[C@@H]1CN([C@H](C)CO)C(=O)c2cccc(NC(=O)c3ccncc3)c2O[C@@H]1CN(C)Cc1ccc(C(=O)O)cc1 | i | i | i | i
C[C@@H]1CN([C@H](C)CO)C(=O)CCCn2cc(nn2)CO[C@@H]1CN(C)CC1CCCCC1 | i | i | i | i
Cc1noc(C)c1S(=O)(=O)Nc1ccc2c(c1)C(=O)N([C@H](C)CO)C[C@H](C)[C@@H](CN(C)C)OCCCC[C@@H](C)O2 | i | i | i | i
O=S(=O)(NCCCCCCc1ccccc1)c1cccc2c(Cl)cccc12 | i | i | i | i
C[C@@H]1CN([C@H](C)CO)C(=O)CCCn2cc(nn2)CO[C@@H]1CN(C)C(=O)Nc1cccc2ccccc12 | i | i | i | i
C=CC[C@@]1(C(=O)NCC(O)CO)N=C(c2ccc(OCCCO)cc2)O[C@@H]1c1ccccc1 (stereo partly specified) | i | i | i | i
CC/C=C\C/C=C\C/C=C\C/C=C\C/C=C\CCCC(=O)O | i | i | i | i
C[C@@H]1CCCCO[C@@H](CN(C)C(=O)CCC(F)(F)F)[C@@H](C)CN([C@@H](C)CO)C(=O)c2cc(NS(=O)(=O)c3ccccc3)ccc2O1 | i | i | i | i
Cn1ncc(C#N)c1NC(=O)C1CC(c2ccc(Cl)c(Cl)c2)=NO1 (stereo unspecified) | i | i | i | i
C[C@H]1CN([C@@H](C)CO)C(=O)c2cccc(NC(=O)Nc3cccc4ccccc34)c2O[C@@H]1CN(C)C(=O)Nc1ccc(C(F)(F)F)cc1 | i | i | i | i
C[C@@H]1CN([C@H](C)CO)C(=O)c2cccc(NC(=O)c3nc4ccccc4s3)c2O[C@H]1CN(C)C(=O)NC1CCCCC1 | i | i | i | i
N#Cc1c(-c2ccccc2)nc(SCC(=O)Nc2ccc(Oc3ccccc3)cc2)[nH]c1=O | i | i | i | i
COCCCN1C(=O)[C@@]2(Cc3ccccc31)c1ccccc1C(=O)N(Cc1ccccc1)[C@H]2c1ccc(CO)cc1 | . | i | i | i
CCOc1ccc(C(C)C)cc1S(=O)(=O)n1c(C)nc2ccccc21 | i | i | i | i
CN(C)CCN(Cc1ccccc1)c1ccccn1 | i | i | i | i
C[C@H](CO)N1C[C@H](C)[C@@H](CN(C)S(=O)(=O)c2ccc(Cl)cc2)Oc2c(NC(=O)Nc3cccc4ccccc34)cccc2C1=O | i | i | i | i
CCCCn1c2ccccc2c2nnc(SCCN3CCOCC3)nc21 | i | i | + | i
(further entries)
SMILES | ID4 binder | STAT3 binder | mut p53 SMM | c-Myc SMM
C[C@H](CO)N1C[C@H](C)[C@H](CN(C)C(=O)C2CCCCC2)OCCCC[C@H](C)Oc2ccc(NS(C)(=O)=O)cc2C1=O | i | i | i | i
Cc1noc(C)c1S(=O)(=O)N(C)C[C@@H]1OCCCC[C@@H](C)Oc2ccc(N(C)C)cc2C(=O)N([C@@H](C)CO)C[C@H]1C | i | i | i | i
C[C@@H]1CCCCO[C@H](CN(C)C(=O)c2ccccc2)[C@H](C)CN([C@H](C)CO)C(=O)c2cc(NS(C)(=O)=O)ccc2O1 | i | i | i | i
CC(C)[C@@H]1CC[C@@]2(C)[C@H](O)CC[C@@](C)(O)[C@@H]2[C@@H]1OC(=O)/C=C/c1ccccc1 | i | i | i | i
C[C@@H]1CN([C@@H](C)CO)C(=O)Cc2cc(NS(=O)(=O)c3ccccc3)ccc2O[C@H]1CN(C)S(=O)(=O)c1cccs1 | i | i | i | i
Cc1noc(C)c1NC(=O)Nc1cccc2c1O[C@H](CN(C)Cc1ccncc1)[C@H](C)CN([C@H](C)CO)C2=O | i | i | i | i
C[C@@H]1CN([C@@H](C)CO)C(=O)c2cc(NC(=O)CCC(F)(F)F)ccc2O[C@@H](C)CCCCO[C@@H]1CN(C)Cc1ccccc1 | i | i | i | i
C=C(C(=O)O)C1C(OC(=O)/C(=C/CO)CO)CC(C)(O)C2CC(OC(C)=O)C(C)=CC12 (stereo unspecified) | i | i | i | i
C=CCOC(=O)C(=O)/C=C/C1CC1 | i | i | i | i
COc1ccc(CN(C)C[C@@H]2OCCCC[C@@H](C)Oc3ccc(NC(=O)Nc4c(C)noc4C)cc3C(=O)N([C@@H](C)CO)C[C@H]2C)cc1 | i | i | i | i

Limited to c-Myc SMM (two entries from above):
SMILES | c-Myc SMM
Cc1noc(C)c1NC(=O)Nc1cccc2c1O[C@H](CN(C)Cc1ccncc1)[C@H](C)CN([C@H](C)CO)C2=O | i
C[C@@H]1CN([C@@H](C)CO)C(=O)c2cc(NC(=O)CCC(F)(F)F)ccc2O[C@@H](C)CCCCO[C@@H]1CN(C)Cc1ccccc1 | i

Going on with the list:
SMILES | ID4 binder | STAT3 binder | mut p53 SMM | c-Myc SMM
Cc1noc(C)c1S(=O)(=O)Nc1ccc2c(c1)C(=O)N([C@H](C)CO)C[C@H](C)[C@H](CN(C)C(=O)CCC(F)(F)F)OCCCC[C@@H](C)O2 | i | i | i | i
C[C@@H]1CCCCO[C@H](CN(C)S(=O)(=O)c2ccc(Cl)cc2)[C@H](C)CN([C@@H](C)CO)C(=O)c2cc(NC(=O)Nc3cccc4ccccc34)ccc2O1 | . | i | i | i
C[C@@H]1CN([C@@H](C)CO)C(=O)c2cc(NC(=O)CCC(F)(F)F)ccc2O[C@@H](C)CCCCO[C@@H]1CN(C)S(=O)(=O)c1cccs1 | . | i | i | i
Cc1noc(C)c1NC(=O)N(C)C[C@@H]1OCCCC[C@@H](C)Oc2ccc(N(C)C)cc2C(=O)N([C@@H](C)CO)C[C@H]1C | i | i | i | i
COc1ccc(S(=O)(=O)N(C)C[C@@H]2Oc3ncc(Br)cc3C(=O)N([C@H](C)CO)C[C@@H]2C)cc1 | i | i | i | i
COc1ccc(CN(C)C[C@@H]2Oc3ccc(NC(=O)CCC(F)(F)F)cc3C(=O)N([C@@H](C)CO)C[C@@H]2C)cc1 | i | i | i | i
CCN[C@H]1CN(CCCOC)S(=O)(=O)c2sc(S(N)(=O)=O)cc21 | i | i | i | i
C[C@@H]1CN([C@H](C)CO)C(=O)c2cccc(NC(=O)Nc3cccc4ccccc34)c2O[C@@H]1CN(C)C(=O)Nc1cccc2ccccc12 | i | i | i | i
CNC[C@H]1Oc2ccc(NC(=O)CCCN(C)C)cc2CC(=O)N([C@H](C)CO)C[C@@H]1C | i | i | i | i
COc1ccc(S(=O)(=O)Nc2ccc3c(c2)CC(=O)N([C@H](C)CO)C[C@H](C)[C@H](CN(C)Cc2ccc(C(=O)O)cc2)O3)cc1 | i | i | i | i
C[C@@H]1CCCCO[C@@H](CN(C)C(=O)Nc2ccc(C(F)(F)F)cc2)[C@H](C)CN([C@H](C)CO)C(=O)c2cc(NS(C)(=O)=O)ccc2O1 | i | i | i | i
CN1C(=O)C(Cc2c[nH]c3ccccc23)NC1=S (stereo unspecified) | i | i | i | i
COC(=O)c1ccccc1NC(=O)CSc1nc2ncccc2[nH]1 | i | i | i | i
COc1ccc(CCN2C(=O)[C@@]3(Cc4ccccc42)c2ccccc2C(=O)N(Cc2ccccc2C(F)(F)F)[C@H]3c2ccc(CO)cc2)cc1 | i | i | i | i

Fetched one by one from the entries so far:
SMILES | ID4 binder | STAT3 binder | mut p53 SMM | c-Myc SMM
Cc1noc(C)c1S(=O)(=O)Nc1ccc2c(c1)C(=O)N([C@H](C)CO)C[C@H](C)[C@H](CN(C)C(=O)CCC(F)(F)F)OCCCC[C@@H](C)O2 | i | i | i | i
O=C1O[C@H](c2ccccc2)[C@H](c2ccccc2)N2[C@H]1[C@@H](C(=O)Nc1nc3ccccc3s1)[C@]1(C(=O)Nc3ccc(C#CC4(O)CCCCCC4)cc31)[C@H]2c1ccc(OCCO)cc1 | i | i | i | i
C[C@@H]1CN([C@@H](C)CO)C(=O)c2cc(N(C)C)ccc2O[C@H]1CN(C)C(=O)Nc1ccc(F)cc1 | i | i | i | i

These rows are one share of the data; count on the stated rates, not on these rows.
